High-throughput results: PubChem, several laboratories
rRNA inh HTS: reduced GFP signal of wild-type E. coli, primary screen, bacterial rRNA inhibitor project, GFP/RFP fluorescence, OD600, single point | E. coli WT GFP vs humanized-ribosome RFP mutants, 24 h; active compounds read low; DMSO median 0, no signal -100 | GFP signal change (wild-type ribosome), % (no concentration beside the values) | 1.6% of 350,000 active;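 active means significant combined selectivity score with lowered wild-type GFP, culture density cut under 30%, mutant RFP and density less affected; inactive means any of these conditions unmet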; further: one replicate is shown; some compounds called inactive have numbers as strong as hits
Beta cell apopt: inhibitors of cytokine-induced beta cell apoptosis, primary screen, luminescence. INS-1E cytokine-induced death, ATP luminescence, 48 h; percent of positive-control rescue, neutral wells zero. 0.8% of 300,000 active. protection from apoptosis, % (test concentration not listed). AID 435005, 2010;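 active means all replicates at 75% or more, or half of them and the mean; inconclusive means half reach 75% but not the mean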;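 further: 0% = cytokine-treated negative control wells and 100% = positive control rescue; higher means more ATP so stronger rescue from cytokine killing; wells of about 40 µL received 100 nL stock; the first replicate is given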
ALR inh: inhibitors of human ALR sulfhydryl oxidase, primary screen, biochemical, H2O2 detection, HRP-luminol luminescence, single point. FAD-linked sulfhydryl oxidase ALR (Homo sapiens), P55789. purified ALR, DTT oxidation. inhibition, % (no concentration beside the values). 3.8% of 290,000 active;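 active means mean and each replicate at 75% or more; inconclusive means only one of the two met; inactive means neither met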;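 further: stock transfer was 7.5 nL into about 7.5 µL; 0% = neutral wells and 100% = wells with inactivated enzyme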
Target sequence (P55789 whole entry, looked up): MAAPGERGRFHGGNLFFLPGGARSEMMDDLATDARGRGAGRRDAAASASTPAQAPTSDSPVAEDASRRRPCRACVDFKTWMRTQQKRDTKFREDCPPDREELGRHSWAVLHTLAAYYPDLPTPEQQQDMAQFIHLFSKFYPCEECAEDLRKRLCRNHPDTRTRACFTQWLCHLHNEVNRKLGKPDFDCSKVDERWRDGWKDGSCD
T cruzi inh: inhibitors of intracellular T. cruzi growth, primary screen, luminescence, NIH3T3 host cells; 1.4% of 300,000 active; inhibition, % (test concentration not listed); T. cruzi beta-gal in NIH3T3, 90 h;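 active means mean inhibition across valid replicates above about 55%, limit read from the data; inconclusive means mean below that limit but half or more replicates reach it; inactive means mean below it, under half of replicates reach it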;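 further: signal also drops with host cell toxicity which is not excluded here; 0% = plate median of DMSO wells and 100% = zero luminescence signal; higher percent means less beta-gal luminescence so fewer parasites; stock transfer was 50 nL into about 50 µL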
LANA-H2B inh: blockers of LANA interaction with H2A/H2B – biochemical, FP readout, HTS, primary screen. Protein LANA1 (Human herpesvirus 8 type P (isolate GK18)), Q9QR71. cell-free LANA-H2A/H2B peptide, fluorescence polarization. inhibition, % (no concentration beside the values). 0.6% of 320,000 active. AID 2629, 2010; in the data active means inhibition mostly above about 10%, no sharp cut-off; inactive means mostly below about 6.7%;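 further: stock transfer was 7.5 nL into about 10 µL; 0% = median of vehicle wells and 100% = median of positive control wells; one replicate is shown; the record names a cut of 25% in any replicate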
Calb FLC: C. albicans growth inhibition with fluconazole, primary screen, CaCi-2 strain, Alamar Blue fluorescence; growth inhibition, % (no concentration beside the values); AID 1979, 2009; 0.57% of 300,000 active; C. albicans CaCi-2 (fluconazole-resistant clinical isolate) + fluconazole, 48 h;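 active means most replicates above 75%; inconclusive means exactly half above 75%; inactive means most below 75%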;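 further: all wells also contain fluconazole at 8 µg/ml as a sub-toxic cotreatment; 0% = median of DMSO wells and 100% = median of geldanamycin control wells; wells of about 8 µL received 7.5 nL stock; the first replicate is given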
B2AR ag: beta2AR agonists driving receptor internalization, primary screen, cell-based, FAP fluorogen, flow cytometry | Beta-2 adrenergic receptor (Homo sapiens), P07550 | Am2.2-beta2AR cells; reference of the scale not given here | response, % (concentration not given with the values) | 0.43% of 340,000 active | AID 504454, 2011;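 active means response above a set limit, near 3 SD of response in nonfluorescent compounds, cut at about 42% in these data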;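 further: stock transfer was 100 nL into about 11 µL; a reference agonist was the positive control; negative values mostly stem from fluorescent compounds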
Target sequence (P07550 whole entry, looked up): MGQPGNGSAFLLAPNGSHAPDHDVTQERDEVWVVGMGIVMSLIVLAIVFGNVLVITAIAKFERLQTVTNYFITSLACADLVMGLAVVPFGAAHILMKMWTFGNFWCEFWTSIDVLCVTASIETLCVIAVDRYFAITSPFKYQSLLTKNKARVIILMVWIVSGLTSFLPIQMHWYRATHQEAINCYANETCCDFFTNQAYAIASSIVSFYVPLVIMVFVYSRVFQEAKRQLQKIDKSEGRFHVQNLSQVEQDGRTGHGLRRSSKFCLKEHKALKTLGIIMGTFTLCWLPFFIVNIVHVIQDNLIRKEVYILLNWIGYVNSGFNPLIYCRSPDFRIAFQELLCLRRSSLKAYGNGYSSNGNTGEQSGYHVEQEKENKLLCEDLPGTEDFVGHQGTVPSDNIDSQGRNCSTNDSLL
Bfl-1 A1 inh: caspase 3/7 activation in MEF A1-2A-BIM cells, primary screen, A1 inhibitor project, cell-based, luminescence, HTS; caspase activation, % (test concentration not listed); 0.066% of 330,000 active; Caspase-Glo 3/7 luminescence, 3 h; percent of clofoctol response, vehicle zero;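 active means over half of replicate activation scores above 10%, or exactly half above 10 with the replicate mean above 10; inconclusive means replicate mean below 10 yet half the replicates above 10; inactive means over half of replicates below 10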;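 further: wells of about 30 µL received 50 nL stock; many hits fall short of the cut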
rRNA inh HTS OD600: also measured in rRNA inh HTS; calls as there; OD600 change, %; measured here: OD600 growth;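 optical density of the mix in the first replicate; 0 = DMSO median and -100 = no signal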
rRNA inh HTS RFP: also measured in rRNA inh HTS; calls as there; RFP signal change, %; measured here: RFP humanized mutant strains;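 first replicate; 0 = DMSO median and -100 = no signal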
Active calls of the source: *; i = inactive; ? = inconclusive; · = no result given. Some of the compounds tested; rates above refer to the full screens.

cpd	smiles	LANA-H2B inh	B2AR ag	T cruzi inh	ALR inh	rRNA inh HTS	Bfl-1 A1 inh	rRNA inh HTS RFP	Calb FLC	rRNA inh HTS OD600	Beta cell apopt
1	COCCNC(=O)c1c[nH]c2ccc(OC)cc2c1=O	0.6	-4	-3	-10	·	2.3	·	0	·	-4
2	CC(C)Nc1nnc(SCC(=O)c2c(N)n(Cc3ccccc3)c(=O)n(C)c2=O)s1	13	-1	5	-3	·	1.6	·	-1	·	1
3	O=Cc1c[nH]c2ccc(OCc3ccccc3)cc12	0.3	15	·	-2	6	-0.1	-0.9	·	16	-5
4	O=C(CSc1ccc(-c2ccccc2)nn1)N1CCCCC1	0.0	-3	11	0	0	-6.1	3.6	-40	-1	·
5	CC(OC(=O)/C=C/c1ccccc1)C(=O)Nc1ccc(C(N)=O)cc1 (centres undefined)	-3.3	16	·	-4	-4	0.5	1.0	·	-12	-4
6	O=C(Nc1nnc(SCc2ccccc2Cl)s1)C1COc2ccccc2O1 (centres undefined)	3.7	-2	16	-7	·	0.4	·	12	·	1
7	COC(=O)c1cn(C(=O)c2cccc(Br)c2)c2ccccc12	2.4	14	-9	-6	0	0.6	0.6	1	3	7
8	CCCc1nc2c(ccc3ccccc32)cc1CC	-1.1	23	6	-5	11	0.7	3.1	16	16	1
9	O=C(COc1ccccc1Cl)Nc1nc(-c2cccs2)cs1	0.3	-2	6	1	·	0.7	·	-15	·	2
10	O=C1NC(c2cc(Cl)cc([N+](=O)[O-])c2O)Nc2ccccc21 (centres undefined)	-1.9	18	17	-3	-1	-0.8	3.0	32	5	-5
11	CN1CCN(c2ccc([N+](=O)[O-])cc2C(=O)Nc2ccccc2)CC1	0.1	-11	2	-2	11	0.3	-0.6	-4	11	-3
12	O=C(CNC(=O)c1ccccc1F)OCC(=O)c1c[nH]c2ccccc12	-2.8	11	·	-5	·	1.0	·	·	·	-15
13	CC(OC(=O)c1nn(C)c(=O)c2ccccc12)C(=O)Nc1ccc(S(N)(=O)=O)cc1 (centres undefined)	-1.0	-5	-9	-3	6	2.3	0.5	-6	12	1
14	COc1ccccc1NS(=O)(=O)c1cccc(NC(=O)C2CC2)c1	-0.8	-1	·	0	3	1.8	0.8	·	1	-2
15	NC(=O)COC(=O)c1ccc2c(c1)S(=O)(=O)N=C1CCCCCN12	-2.2	-1	3	0	5	-0.6	-1.5	-5	16	-5

Continued:
cpd	smiles	LANA-H2B inh	B2AR ag	T cruzi inh	ALR inh	rRNA inh HTS	Bfl-1 A1 inh	rRNA inh HTS RFP	Calb FLC	rRNA inh HTS OD600	Beta cell apopt
16	C[C@]12c3[nH]c4ccccc4c3CCN1C(=O)C(CC(=O)NCCCn1ccnc1)C[C@@H]2C(=O)N1CCOCC1 (some centres undefined)	i	-5	·	1	·	0.1	·	·	·	-3
17	O=C(O)C1CCN(S(=O)(=O)Cc2ccccc2)CC1	-2.4	8	-15	0	12	-2.3	-3.6	-1	10	-5
18	CC(CCN1CCN(CCO)CC1)c1ccccc1 (centres undefined)	2.5	1	13	-7	9	1.5	1.3	-12	5	-7
19	CCOC(=O)c1cnc(SCC(=O)Nc2sc(C)c(C)c2C#N)nc1N	0.9	2	8	-2	·	0.2	·	-2	·	·
20	O=C(CCN1C(=O)/C(=C/c2ccc(Cl)cc2)SC1=S)Nc1ccc(C(=O)O)cc1	-9.3	·	-7	-4	4	0.5	0.4	-4	4	-4
21	Cc1oc2cc3oc(=O)c(CCC(=O)N4C[C@H]5C[C@@H](C4)c4cccc(=O)n4C5)c(C)c3cc2c1C	-8.9	11	25	-5	·	-0.5	·	-4	·	0
22	COc1ccccc1CCN1CCCC(CN(C)C(=O)c2ccco2)C1 (centres undefined)	-1.9	-2	36	-3	28	-1.2	1.8	-3	22	2
23	CC(/C=C/c1ccccc1)=N\Nc1nc(-c2ccccc2)cs1	-2.4	-2	·	-3	-6	-1.3	8.5	-16	2	-6
24	Cc1cc(C)c(C(=O)N2CCCC(CNC(=O)C3(c4ccc(Cl)cc4)CC3)C2)c(=O)[nH]1 (centres undefined)	-2.7	-3	-5	-21	24	-0.2	2.7	-3	21	-5
25	CCN(CC)CCN(CC(=O)Nc1c(C)cc(C)cc1C)C(=O)c1ccccc1	0.0	3	-4	-19	6	0.6	1.6	-7	10	·
26	CCC1CC2CC(NC(C)=O)C1C2 (centres undefined)	0.2	0	·	4	·	0.4	·	-14	·	0
27	Cc1nn(Cc2ccc(F)cc2)c(C)c1NC(=O)CCCn1nc([N+](=O)[O-])cc1C	-3.2	-5	19	-3	3	0.6	2.0	-2	10	1
28	CSCCC(NC(=O)c1ccccc1Cl)C(=O)Nc1ccc(C)c(S(=O)(=O)N2CCOCC2)c1 (centres undefined)	-1.2	12	-1	1	1	0.1	-2.5	-2	-4	1
29	COC(=O)CN1C(=S)N(c2ccc(OC)cc2)C(=O)/C1=C/c1ccc(N2CCOCC2)cc1	4.8	-47	11	11	·	-0.3	·	?	·	4
30	COc1ccc(CCNC(=O)C2CCN(S(=O)(=O)c3cccc4nsnc34)CC2)cc1OC	-0.3	-1	-4	-5	·	-0.5	·	1	·	-3

Going on with the list:
cpd	smiles	LANA-H2B inh	B2AR ag	T cruzi inh	ALR inh	rRNA inh HTS	Bfl-1 A1 inh	rRNA inh HTS RFP	Calb FLC	rRNA inh HTS OD600	Beta cell apopt
31	NS(=O)(=O)c1ccc(CNC(=O)c2cccc(Oc3ccccc3)c2)cc1	-2.7	-24	-5	-4	0	-1.0	1.4	3	-11	6
32	CC(C)CNC(=O)NC(=O)COC(=O)Cn1cnc2ccccc2c1=O	7.1	4	-36	2	9	0.2	0.7	?	-2	-12
33	O=C1CCCC2=C1C(c1ccc(O)c(Br)c1)C1=C(CCCC1=O)N2c1ccccc1	-4.2	8	21	6	-35	1.4	-15	15	-52	0
34	CC(N=C1NS(=O)(=O)c2ccccc21)c1ccccc1 (centres undefined)	-1.4	5	·	-4	·	0.2	·	3	·	1
35	Cc1cc(N)n(-c2ccc(S(N)(=O)=O)cc2[N+](=O)[O-])n1	-3.8	-2	-6	-7	23	-0.1	2.6	-4	16	5
36	O=C(CSc1nc2ccccc2c(=O)n1-c1ccccc1F)NC1CC1	-1.6	-18	·	-1	-14	0.9	-4.2	·	-21	14
37	CCC1(C)NC(=O)N(CC(=O)N2N=C(c3ccccc3)CC2c2ccc(OC)cc2)C1=O (centres undefined)	1.1	-4	22	-3	-9	0.2	-5.3	29	-3	-4
38	Cc1[nH]n(-c2ccccc2)c(=O)c1CCOC(=O)c1ccc(C(F)(F)F)cc1	5.6	2	-3	·	·	0.5	·	4	·	-5
39	CC1(C)C2CCC(C2)C1(C)NC(=O)CN1CCOCC1 (centres undefined)	2.0	5	·	-23	·	0.3	·	·	·	-10
40	CCOC(=O)c1ccc(-n2c(CN3CCOCC3)nc3ccc([N+](=O)[O-])cc3c2=O)cc1	7.6	-6	6	-4	5	-0.2	-4.3	3	2	-2
41	Oc1ccc2ccccc2c1CN1CCOCC1	1.8	-9	-17	·	7	0.2	-2.0	20	13	-3
42	Cc1ccc(-n2ncc3c2CC(C)(C)CC3NC(=O)CCN2CCCO2)cc1 (centres undefined)	-2.5	19	-4	-4	-5	0.4	-3.4	-19	-6	-2
43	O=C(CSC(=S)N1CCOCC1)c1cc(Br)cc(Br)c1O	1.4	13	-2	·	-21	-0.3	15	-5	-20	-7
44	CC(C)[C@H](NC(=O)[C@H](CC(=O)O)NC(=O)[C@H](CCCCN)NC(=O)[C@@H](N)CCCN=C(N)N)C(=O)N[C@@H](Cc1ccc(O)cc1)C(=O)O	-3.7	·	-4	-1	·	0.7	·	-11	·	0
45	Cc1ccc(CN(c2ccc(C(=O)N3CCOCC3)cc2)S(C)(=O)=O)cc1	-3.1	2	-2	0	·	0.1	·	·	·	-2

Next records.
cpd	smiles	LANA-H2B inh	B2AR ag	T cruzi inh	ALR inh	rRNA inh HTS	Bfl-1 A1 inh	rRNA inh HTS RFP	Calb FLC	rRNA inh HTS OD600	Beta cell apopt
46	Cc1cc(=O)oc2cc(OCC(=O)OCC(=O)N(CCC#N)c3ccccc3)ccc12	-0.5	2	7	-2	4	-0.5	-0.5	5	6	-1
47	CC(=O)c1nc2ccccc2n1CCc1ccccc1	-3.2	18	-3	-4	-19	0.0	-3.5	-2	-25	0
48	O=S(=O)(c1ccc(-c2ccon2)s1)N1CCN(c2ccncc2)CC1	0.4	·	24	-4	·	-0.1	·	8	·	0
49	COc1ccc(-c2nc(-c3ccccn3)ncc2S(C)(=O)=O)cc1	-5.3	2	-10	-21	12	0.7	-0.1	-28	12	2
50	Cc1nn(Cc2c(F)cccc2Cl)c(=O)c2ccccc12	-1.5	-1	2	0	5	-1.9	-0.5	16	3	-9
51	COC(=O)c1ccc(S(=O)(=O)N2CCCCC2)o1	1.2	4	-5	-2	-2	0.5	-0.5	6	2	-2
52	COc1ccccc1NS(=O)(=O)c1cccc(NC(=O)c2ccc3ccccc3n2)c1	-1.9	13	7	-5	1	-0.7	1.7	11	-1	0
53	COc1ccc(/C=C2\CCC(C3CCCC3)C2=O)cc1Cn1cccn1 (centres undefined)	·	3	-2	·	-1	-0.5	-5.0	8	-2	-6
54	CC(C)c1ccc(NC(=O)CSc2nnc(-c3ccccn3)n2C)cc1	3.9	1	13	-2	·	-0.3	·	3	·	5
55	N#CC(=C1Nc2ccccc2N1)S(=O)(=O)c1ccccc1	-3.9	1	-10	0	16	0.4	-1.0	3	0	0
56	O=C(COC(=O)CSc1ccc(F)cc1)NC1CCCCCC1	-3.0	-9	·	6	1	-1.5	4.7	·	1	-6
